H5N1 CPE = MDCK cell protection from H5N1 avian flu; cytopathic effect, luminescence, 72 h; active compounds read high; no value below 0 was filed and about half of the inactive calls have no number; reference of the scale not given here; 96,000 compounds, 0.07% hits; inhibition, % at 50 µM; in the data active means inhibition above about 25%
Starred values were filed as active, the others as inactive. This is a subset; the hit share may differ from the screen's.

Screening O=C(/C=C/Nc1ccccc1)c1cnc(-c2ccccc2)s1 returned H5N1 CPE inactive.
`COc1ccc(NC(=O)CN(C)S(=O)(=O)c2cccs2)cc1` gave H5N1 CPE inactive.
Screening CCOc1ccc(-c2cc(C(=O)Nc3ccc4c(c3)OCCO4)c3ccccc3n2)cc1 returned H5N1 CPE 1.3.
For COCCn1nnnc1CN1CCC(Cc2ccccc2)CC1 the results were H5N1 CPE 0.6.
Screening CCCNC(=O)c1cc2c(C(F)(F)F)nn(C)c2s1 returned H5N1 CPE inactive.
For CCOC(=O)N1CCC(Nc2c(N3CCN(c4cc(Cl)ccc4C)CC3)c(=O)c2=O)CC1 the results were H5N1 CPE inactive.
`CCN(CC)S(=O)(=O)c1cccc(C(=O)Oc2cccnc2)c1` gave H5N1 CPE inactive.
Screening CCc1cccc(NC2c3ccccc3C(=O)N2c2cccnc2)c1 (stereo unspecified) returned H5N1 CPE 1.4.
For CCOc1ccccc1CNC(=O)C1CCC(=O)N1C(C)C (stereo unspecified) the results were H5N1 CPE inactive.
Screening CC(C)=CCc1c(C)nc2ccccc2c1C(=O)O returned H5N1 CPE 0.1.
For Cc1cc(C(=O)NCc2cccs2)c(C)o1 the results were H5N1 CPE 0.4.
Screening O=C(c1ccc(-c2nnc(-c3ccccc3)o2)cc1)N1CCCCCC1 returned H5N1 CPE inactive.
COCCCn1c(SCC(=O)NC2CCCCC2)nnc1-c1ccncc1 was read as H5N1 CPE 1.1.
`O=C(Cc1ccc(-n2c(=O)c3sccc3n(Cc3ccc(F)cc3)c2=O)cc1)NCc1ccco1` gave H5N1 CPE inactive.
Screening CCCn1c(CNc2ccccc2O)nc2ccccc21 returned H5N1 CPE 10.
Cc1ccn2cc(C(=O)Nc3ccc4c(c3)OCCO4)nc2c1 was read as H5N1 CPE 0.5.
For c1ccc(-c2ccnc3nc(N4CCN(c5ccccc5)CC4)nn23)cc1 the results were H5N1 CPE inactive.
O=C(Nc1ccc2c(c1)OCCO2)c1cc2sccc2n1Cc1ccccc1 was read as H5N1 CPE inactive.
CCOc1nc(Nc2ccc(OC)cc2)nc(OCC)n1 was read as H5N1 CPE inactive.
`NC(=O)NC(c1ccccc1)c1ccccc1` gave H5N1 CPE 0.5.
`CCN(CC)S(=O)(=O)c1cccc(C(=O)Nc2cc(C)cc(C)c2)c1` gave H5N1 CPE 1.9.
For Cc1ccccc1C(=O)c1cccn1CC(=O)NCCN1CCN(c2cccc(C)c2C)CC1 the results were H5N1 CPE inactive.
Screening O=C(NCc1ccccc1Cl)c1cnn2cccnc12 returned H5N1 CPE 1.0.
Screening CN(C)CC(C)(C)CNS(=O)(=O)c1cccc(Cl)c1Cl returned H5N1 CPE 0.8.
`Cc1ccc(S(=O)(=O)N2CCN(c3ccc4nnc(-c5ccccc5)n4n3)CC2)cc1` gave H5N1 CPE 1.2.
Screening CCN(CC)S(=O)(=O)c1ccc(Cl)c(C(=O)NC)c1 returned H5N1 CPE inactive.
Screening CCC(=O)Nc1c(C(=O)N2CCCCCC2)cnn1-c1ccc(C)c(C)c1 returned H5N1 CPE inactive.
`N#Cc1cc(-c2ccccc2)c[nH]c1=O` gave H5N1 CPE 0.4.
For O=C(NC(=S)Nc1ccc2[nH]ncc2c1)c1ccccc1 the results were H5N1 CPE 0.4.
`CCOC(=O)N1CCN(C(=O)CSc2nnc(-c3ccc(C(C)(C)C)cc3)o2)CC1` gave H5N1 CPE 2.4.
Screening COc1ccc(-c2noc(CCC(=O)N3CCN(c4cc(C)ccc4C)CC3)n2)cc1 returned H5N1 CPE 0.2.
For COc1ccc(N2CCN(c3ncnc4c3cnn4-c3ccc(C)cc3C)CC2)cc1 the results were H5N1 CPE inactive.
Screening O=C(CN1C(=O)C2C3C=CC(C3)C2C1=O)NCCc1ccccc1 (stereo unspecified) returned H5N1 CPE inactive.
Screening Cc1ccc(S(=O)(=O)N2CCC(C(=O)Nc3ccccc3N3CCCCC3)CC2)cc1 returned H5N1 CPE 0.3.
Screening CCC(C)(C)NC(=O)CC(c1ccc(OC)cc1)n1cccc1 (stereo unspecified) returned H5N1 CPE 0.5.
`CC(C)(C)c1nc2scc(-c3cccs3)c2c(=O)o1` gave H5N1 CPE 1.6.
Screening Cc1ccccc1C(=O)NNC1=NCCC1 returned H5N1 CPE inactive.
Screening Nc1c(NCCC2=CCCCC2)c(=O)[nH]c(=O)n1Cc1ccccc1 returned H5N1 CPE inactive.
COc1cc(/C=N/N2C(=O)c3ccccc3NC2(C)c2cccc([N+](=O)[O-])c2)cc(Br)c1O (stereo unspecified) was read as H5N1 CPE 1.8.
CSc1ccc(S(=O)(=O)NCCSC(C)(C)C)cc1 was read as H5N1 CPE 0.1.
Screening O=C(CCC1COc2ccccc2O1)NCC1COc2ccccc2O1 (stereo unspecified) returned H5N1 CPE 0.5.
For O=C(CC1Oc2ccccc2NC1=O)NCc1ccc(Cl)cc1 (stereo unspecified) the results were H5N1 CPE 0.1.
`COC(=O)Cn1cc(C(=O)OC)c2ccccc21` gave H5N1 CPE inactive.
O=S(=O)(NCc1cc(-c2ccc(Cl)cc2)no1)c1ccccc1 was read as H5N1 CPE inactive.
Cc1nn(Cc2ccc(C(=O)Nc3nc4c(C)cccc4s3)o2)c(C)c1Br was read as H5N1 CPE inactive.
`Fc1cccc2sc(Nc3nnc(-c4ccccc4)o3)nc12` gave H5N1 CPE 0.5.
Screening O=C(O)c1cc2ccc3ccccc3c2[nH]1 returned H5N1 CPE 0.9.
For CC(=O)Nc1nc(CC(C)C)cc(-c2ccco2)c1C#N the results were H5N1 CPE 5.3.
COc1cccc(-c2cc(C(=O)Nn3cnnc3)c3ccccc3n2)c1 was read as H5N1 CPE inactive.
Cn1c2ccccc2c2c(C(=O)NCc3ccco3)cn(C3CCCCC3)c(=O)c21 was read as H5N1 CPE 1.7.
`O=S(=O)(Nc1cccnc1)c1ccc(Cl)cc1` gave H5N1 CPE 1.3.
`O=C(O)C1CCN(S(=O)(=O)c2cccnc2)CC1` gave H5N1 CPE inactive.
For Cc1occc1C(=O)NNC(=O)NC12CC3CC(CC(C3)C1)C2 the results were H5N1 CPE inactive.
CC1(C)C(=O)Nc2ccccc2N1C(=O)COC(=O)c1ccc(Cl)c(S(=O)(=O)NCc2ccccc2)c1 was read as H5N1 CPE 0.4.
For COc1ccc(-c2nnn(CC(=O)N(CC(=O)NCCC(C)C)Cc3cccs3)n2)cc1OC the results were H5N1 CPE inactive.
For Cc1c(NC(=O)C(C)OC(=O)CC2Sc3ccccc3NC2=O)c(=O)n(-c2ccccc2)n1C (stereo unspecified) the results were H5N1 CPE inactive.
Screening COC(=O)C1C2C=CC3(CN(CC4CCCO4)C(=O)C13)O2 (stereo unspecified) returned H5N1 CPE inactive.
O=C1OCCC1Sc1nc2ccccc2[nH]1 (stereo unspecified) was read as H5N1 CPE 0.2.
Screening C#CCn1c(=NC(=O)c2cccs2)sc2cccc(OC)c21 returned H5N1 CPE 0.4.
For CCOC(=O)C1=C(N)OC2=C(C(=O)CCC2)C12C(=O)N(CC(N)=O)c1ccccc12 (stereo unspecified) the results were H5N1 CPE inactive.

Overlap with the part before: 2 compounds; new compounds follow.
Screening C#CCn1c(=NC(=O)c2cccs2)sc2cccc(OC)c21 returned H5N1 CPE 0.4.
For CCOC(=O)C1=C(N)OC2=C(C(=O)CCC2)C12C(=O)N(CC(N)=O)c1ccccc12 (stereo unspecified) the results were H5N1 CPE inactive.
`COc1cccc(N2C(=O)NC(=O)C3(Cc4cc(C)ccc4N(C)C3)C2=O)c1` (stereo unspecified) gave H5N1 CPE inactive.
CCOc1ccc(OCc2ccc(C(=O)NCc3cccnc3)o2)cc1 was read as H5N1 CPE inactive.
CC(C)(C)NC(=O)c1sccc1C(=O)O was read as H5N1 CPE inactive.
`COc1ccc(NC(=O)CNc2cccc(C#N)c2)cc1Cl` gave H5N1 CPE inactive.
`O=C(Cn1cnc2sc(-c3ccccc3)cc2c1=O)NCc1ccco1` gave H5N1 CPE inactive.
CCOc1cc(C)c(Cl)cc1S(=O)(=O)n1nnc2ccccc21 was read as H5N1 CPE inactive.
For Cc1ccc(CC(=O)Nc2nc3ccccc3s2)cc1 the results were H5N1 CPE inactive.
Screening COc1ccccc1-n1nnnc1S(=O)(=O)Cc1ccc(Cl)cc1 returned H5N1 CPE 8.6.
Screening COC(=O)[C@@H](NC(=O)Nc1ccccc1F)C(C)C returned H5N1 CPE 0.2.
O=C(O)c1cccnc1SCc1ccccc1 was read as H5N1 CPE inactive.
Screening Cc1ccc(C)c(S(=O)(=O)NC(CC(C)C)C(=O)O)c1 (stereo unspecified) returned H5N1 CPE 0.2.
`Cn1ccnc1SCC(=O)N(C1CCCCC1)C1CCCCC1` gave H5N1 CPE 1.1.
O=C(Nc1c(Cl)cc(Cl)cc1C(=O)NCc1cccnc1)c1ccc(Cl)cc1Cl was read as H5N1 CPE inactive.
`O=c1nc2n(c3c4c(sc13)CCC4)CCC2` gave H5N1 CPE inactive.
`Nc1nc2c3ccccc3nc(C3CC3)n2n1` gave H5N1 CPE 0.1.
Screening COc1ccc(NC(=O)c2cc(-c3cc(C)ccc3O)n[nH]2)cc1Cl returned H5N1 CPE 2.3.
`Cn1c(=O)n(Cc2ccc(F)cc2)c(=O)c2c1nc1n2CCCN1Cc1ccccc1` gave H5N1 CPE 0.1.
Screening CCCc1n[nH]c2c1/C(=N\O)CCC2 returned H5N1 CPE 1.8.
For O=C(Nc1ccccc1)N1CCCN(Cc2ccccc2F)C1 the results were H5N1 CPE inactive.
Screening COc1ccc(C(=O)C2CN(c3ccccc3)CC2c2ccc(Cl)cc2)cc1 (stereo unspecified) returned H5N1 CPE 1.2.
For COc1ccccc1N(CC(=O)NC1CCCC1)C(=O)CCC(=O)Nc1cc(C)on1 the results were H5N1 CPE inactive.
CCOC(=O)C(NC(=O)c1ccc(OC)cc1)(OCC1(CC)COC1)C(F)(F)F (stereo unspecified) was read as H5N1 CPE inactive.
O=C(COc1ccc(Cl)cc1Cl)NC(=O)N1CCCCC1 was read as H5N1 CPE 0.1.
`O=C(c1cnn2c1NC(c1ccc(Br)cc1)CC2C(F)(F)F)N1CCN2CCCC2C1` (stereo unspecified) gave H5N1 CPE inactive.
`Cc1ccc(NC(=O)CCC(=O)NNC(=O)c2cccc([N+](=O)[O-])c2)cc1C` gave H5N1 CPE 0.1.
For CCn1c(SCc2ccc(C(=O)Nc3nccs3)cc2)nnc1-c1ccc(N)cc1 the results were H5N1 CPE 0.4.
For CCOC(=O)N1CCN(C(=O)c2cccc(NC(=O)c3ccco3)c2)CC1 the results were H5N1 CPE 1.9.
Screening O=C(Nc1nn(Cc2ccccc2F)cc1Br)c1cccs1 returned H5N1 CPE inactive.
`CCOC(=O)N1CCN(C(=O)C(C)(C)Oc2ccc(Cl)cc2)CC1` gave H5N1 CPE 0.4.
Screening COc1ccc(NC(=O)C2CCN(S(=O)(=O)c3ccc(OC)c(OC)c3)CC2)cc1 returned H5N1 CPE inactive.
Screening Cc1ccc2c(c1)N(C(=O)NC1CCCCC1)C(C)(C)CC2C (stereo unspecified) returned H5N1 CPE 0.5.
For Cc1cc(NCCCN2CCOCC2)n2ncc(-c3ccccc3)c2n1 the results were H5N1 CPE inactive.
O=C(NCc1ccncc1)C12CC3CC(CC(C3)C1)C2 was read as H5N1 CPE 1.5.
`C=CCOC(=O)C1=C(C)NC(=O)NC1C1CC=CCC1` (stereo unspecified) gave H5N1 CPE 0.5.
`COc1ccc(-c2csc(N3CCN(C(=O)c4ccco4)CC3)n2)cc1` gave H5N1 CPE inactive.
For Cc1cccc(-c2noc(CN(C(=O)c3ccc(Br)o3)C(C)C)n2)c1 the results were H5N1 CPE 0.6.
Screening O=C(N/N=C1/C(=O)c2cccc3cccc1c23)c1ccc(Cl)cc1 returned H5N1 CPE 0.2.
N/C(=N\OC(=O)c1ccc(Cl)cc1)c1nonc1N was read as H5N1 CPE inactive.
Screening O=C(CCN1CCc2ccccc2C1)Nc1ccccc1F returned H5N1 CPE 0.2.
`CCSc1nc2ccccc2n1CCC(=O)O` gave H5N1 CPE inactive.
Cc1cn(C(=O)C(C)N2C(=O)c3ccccc3C2=O)c(C)n1 (stereo unspecified) was read as H5N1 CPE 0.2.
For CN(C)S(=O)(=O)c1ccc2oc(SCC(=O)NCC(F)(F)F)nc2c1 the results were H5N1 CPE inactive.
Cc1c(NS(=O)(=O)c2cccc(C(=O)NCc3ccncc3)c2)c(=O)n(-c2ccccc2)n1C was read as H5N1 CPE 1.0.
Oc1c(Cl)cc(Cl)cc1/C=N/c1nccs1 was read as H5N1 CPE inactive.
CC(=O)N1N=C(c2cccc(Cl)c2)OC1c1ccc(C(C)C)cc1 (stereo unspecified) was read as H5N1 CPE inactive.
For O=C(CCC(=O)N1CCc2ccccc21)Nc1ccccc1 the results were H5N1 CPE inactive.

Structures above that have a furan ring, fused or not:
For Cc1cc(C(=O)NCc2cccs2)c(C)o1 the results were H5N1 CPE 0.4.
`O=C(Cc1ccc(-n2c(=O)c3sccc3n(Cc3ccc(F)cc3)c2=O)cc1)NCc1ccco1` gave H5N1 CPE inactive.
Cc1nn(Cc2ccc(C(=O)Nc3nc4c(C)cccc4s3)o2)c(C)c1Br was read as H5N1 CPE inactive.
For CC(=O)Nc1nc(CC(C)C)cc(-c2ccco2)c1C#N the results were H5N1 CPE 5.3.
Cn1c2ccccc2c2c(C(=O)NCc3ccco3)cn(C3CCCCC3)c(=O)c21 was read as H5N1 CPE 1.7.
For Cc1occc1C(=O)NNC(=O)NC12CC3CC(CC(C3)C1)C2 the results were H5N1 CPE inactive.
CCOc1ccc(OCc2ccc(C(=O)NCc3cccnc3)o2)cc1 was read as H5N1 CPE inactive.
`O=C(Cn1cnc2sc(-c3ccccc3)cc2c1=O)NCc1ccco1` gave H5N1 CPE inactive.
For CCOC(=O)N1CCN(C(=O)c2cccc(NC(=O)c3ccco3)c2)CC1 the results were H5N1 CPE 1.9.
`COc1ccc(-c2csc(N3CCN(C(=O)c4ccco4)CC3)n2)cc1` gave H5N1 CPE inactive.
For Cc1cccc(-c2noc(CN(C(=O)c3ccc(Br)o3)C(C)C)n2)c1 the results were H5N1 CPE 0.6.

Screening results: PubChem, SRMLSC
